Rango release inh = inhibitors of RanGTP-induced Rango-importin beta complex dissociation; O95149+P62826; Biochemical FRET Rango-importin beta, RanGTP-induced dissociation; Potency, µM (titrated, usually from 46.1 µM), for inactives: at the top dose activity change, negative = inhibition; 0.071% of 340,000 active; active means falling FRET ratio curve, often poorly fitted, with flat reads before Ran was added; inconclusive means other falling curves, or compound fluorescence or quenching; inactive means flat or rising ratio curve;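 note: potency is the fitted concentration of half-maximal effect; % of control where 0% means no effect; nearly all actives have a fitted effect of over 45% in size; -100% = wells without RanGTP and RCC1; the record marks most hits as doubtful in a second field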
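FRET read at 45 min, room temperature: inhibitors block the CFP/YFP signal rise when RanGTP (0.6 uM Ran, 2 mM GTP, 0.2 uM RCC1) frees Rango (0.1 uM) from importin beta (0.25 uM). Pre-read after 5 min compound exposure flags interference.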
Rango-impB inh = Rango-importin beta binding inhibition; 0.031% of 340,000 active; Rango CFP/YFP FRET sensor + importin beta, 45 min; AID 540263; Q14974; Potency, µM (titrated, usually from 92.2 µM), without a hit: top-dose inhibition of complex formation; active = rising FRET ratio curve, often small or poorly fitted; inconclusive = mostly compound fluorescence or quenching in the first reads; inactive = flat curves in all reads;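 note: potency is the fitted concentration of half-maximal effect; 0% = DMSO wells and 100% = buffer wells lacking importin beta; nearly all actives have a fitted effect of over 15% in size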
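FRET biosensor Rango (snurportin 1 IBB between N-terminal EYFP and C-terminal Cerulean), 50 nM in PBS/1 mM DTT/0.02% Tween-20/0.1% BSA, preincubated 5 min RT with compound; 0.125 microM importin beta added, 45 min RT, CFP/YFP FRET ratio read.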
GLA inh pH 4.5 = alpha-galactosidase A (human) inhibition, pH 4.5; P06280; 230,000 tested, under 10 active; purified enzyme, 4-MU-alpha-Gal fluorescence, pH 4.5; AID 1467; activity change, negative = inhibition, % at 105 µM; inconclusive = small, poorly fitted or top-dose-only inhibition, or a rising curve; inactive = flat fitted curve, though single readings scatter; no compound was filed as active;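 note: 0% = full activity with enzyme and -100% = basal without enzyme; dose as in the result columns while the protocol names 77 µM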
Target sequence (P06280 whole entry, looked up): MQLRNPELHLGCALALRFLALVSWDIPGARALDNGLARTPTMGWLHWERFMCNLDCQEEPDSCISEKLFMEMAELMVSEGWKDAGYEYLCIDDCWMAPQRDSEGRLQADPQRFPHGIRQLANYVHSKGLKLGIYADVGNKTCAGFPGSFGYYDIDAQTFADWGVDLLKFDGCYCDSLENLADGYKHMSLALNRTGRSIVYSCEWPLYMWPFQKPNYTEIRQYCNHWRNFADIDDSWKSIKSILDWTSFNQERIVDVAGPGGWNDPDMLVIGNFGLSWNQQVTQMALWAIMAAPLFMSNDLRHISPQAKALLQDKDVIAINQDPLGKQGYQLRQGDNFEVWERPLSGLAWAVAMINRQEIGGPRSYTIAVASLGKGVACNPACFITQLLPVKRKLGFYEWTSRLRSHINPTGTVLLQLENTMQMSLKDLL
miR-21 FLuc = miR-21 reporter, rising signal; AID 2288; HeLa miR-21 FLuc reporter, luciferase, 48 h; Potency, µM (top dose mostly 38.3 µM), for inactives: at the highest dose reporter change, positive = more light; 340,000 tested, under 10 active; active = well fitted rising curve with a large enough effect; inconclusive = small, poorly fitted or top-dose-only effect; inactive = no such curve, though single readings can be large or run the other way;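 note: % of control where 0% means no effect; miR-21 action dims this reporter so a rising signal means less miR-21 action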
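Compounds were titrated across several concentrations (up to approximately 40 uM) and incubated 48 hours with HeLa miR-21-FLuc reporter cells (miR-21 target sequence downstream of FLuc, endogenous miR-21). Readout was firefly luciferase luminescence after lytic detection reagent.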
* marks the source's active call; other numbers are inactive results; ? = inconclusive; . = not tested or not shown; & = joins results of further samples; [ ] = another dose, or the depositor's remark. This is a subset, so the mix of outcomes need not match the whole.

SMILES	Rango release inh	Rango-impB inh	GLA inh pH 4.5	miR-21 FLuc
CCN1CCN(c2ccc(NC(=O)CCc3c(C)nc4c(-c5ccccc5)c(C)nn4c3C)cc2)CC1	-1%	5.0%	-16	-6%
COc1ccc(C(=O)O/N=C(\N)c2ccc(Br)cc2)cc1	0%	-0.4%	.	-32%
CCCCCn1c(SCC(=O)c2ccccc2)nc2cc(C(=O)NCC3CCCO3)ccc2c1=O (configuration not stated)	-21%	0.0%	.	.
N/C(Cc1ccc([N+](=O)[O-])cc1)=N\OC(=O)COc1cccc2ccccc12	1%	-7.3%	-3	-6%
CC(NC(=O)COC(=O)/C=C/c1cccc(C(F)(F)F)c1)c1ccccc1 (configuration not stated)	-3%	-0.6%	-10	-1%
COc1ccccc1N1CCN(C(=O)c2cn(-c3ccccc3)nc2-c2cccnc2)CC1	-3%	-5.0%	2	0%
Fc1ccc2c(c1)c1n[nH]c(=S)nc1n2CCc1ccccc1	-4%	1.1%	.	-3%
Cc1nc(-c2ccccc2)sc1C(=O)CSc1ccc(Br)cc1	8%	0.8%	6	-1%
Cc1ccc(CN2C(=O)CCC2C(=O)NCCN(CC(C)C)CC(C)C)cc1 (configuration not stated)	6%	-3.3%	-3	-18%
Cc1nn(-c2ccccc2)c(C)c1C(=O)OC/C(O)=C(\C#N)c1nc2ccccc2[nH]1	?	?	4	-5%
Cc1cc(NC(=O)C2CCN(S(=O)(=O)c3c(C)noc3C)CC2)ccc1Br	-1%	-4.4%	.	0%&-7%
CCc1cccc(C)c1NC(=O)c1ccccc1	-16%	1.6%	-4	-3%
COc1ccccc1CNC(=O)C1CC(=O)N(C2CCCC2)C1 (configuration not stated)	-1%	2.6%	8	1%
COc1cccc(N2CCN(S(=O)(=O)c3cn(C)cn3)CC2)c1	3%	-3.6%	.	1%
CCN(CC)Cc1c(O)ccc2c1O/C(=C\C=C\c1ccccc1)C2=O	?	?	-12	?
COC(=O)C1=C(C)N(Cc2ccccc2)C(=NCCCCO)N[C@H]1c1cccc(C(F)(F)F)c1	-13%	-4.0%	.	0%
COC1=C(c2ccccc2)C(=O)c2ccccc2C1=O	3%	0.8%	2	-5%
O=C(Nc1cccnc1)C1OCCc2ccccc21 (configuration not stated)	9%	4.3%	3	-10%
O=C(OCc1ccccc1)N1CCOCCN(C(=O)OCc2ccccc2)CCOCC1	10%	-4.2%	5	1%
COc1cc(CNc2nnnn2C)ccc1OCc1ccc(F)cc1Cl	-1%	2.8%	0	-14%
CC1=C(C(=O)Nc2ccccc2)C(c2coc3ccccc3c2=O)C2=C(CCCC2=O)N1 (configuration not stated)	19%	-2.7%	-13	-8%
CCc1ccc(/C=N\NC(=O)c2ccc(Br)o2)s1	-9%	-0.1%	6	-29%
COc1cccc2cc(C(=O)NCCc3c[nH]c4ccccc34)c(=O)oc12	?	1.3%	5	-11%
O=C(Nc1cc(S(=O)(=O)N2CCCCC2)ccc1Cl)c1ccccc1NS(=O)(=O)c1ccc(F)cc1	-10%	4.1%	-11	?
O=C(Cn1cc(C(F)(F)F)ccc1=O)NCc1ccc(F)cc1	-7%	-3.6%	.	-44%
CCOc1ccc(NC(=O)CN(C)C(=O)c2ccc(N3CCCCC3)c([N+](=O)[O-])c2)cc1OCC	14%	-0.7%	.	.
COc1cccc(-n2c(SCC(=O)NC(C)(C)C)nnc2-c2ccoc2C)c1	5%	-0.5%	-3	1%
CS(=O)(=O)c1ccccc1-c1nc(-c2cc(C(F)(F)F)cc(C(F)(F)F)c2)no1	0%	-0.5%	?	-8%
CCCCOc1cc(C)nc(NCc2ccccc2)n1	-8%	1.0%	-18	9%
O=C(COC(=O)c1ccc(F)cc1F)c1ccc[nH]1	-21%	0.4%	.	.
COc1ccc2c(CC(=O)N[C@@H](Cc3c[nH]c4ccccc34)C(=O)O)cc(=O)oc2c1	4%	-0.9%	.	-1%
O=C(Cc1cccc(C(F)(F)F)c1)OCC(=O)N1CCN(S(=O)(=O)c2ccc(Cl)cc2)CC1	-13%	-2.1%	.	.
O=C(CCN1C(=O)c2ccccc2S1(=O)=O)NCc1ccco1	1%	1.3%	-4	-3%
O=C(COc1ccc(=O)n(-c2ccccc2)n1)Nc1ccccc1	16%	-2.5%	0	-1%
O=C(CNC(=O)c1ccc(Cl)cc1)OCCN1C(=O)c2ccccc2C1=O	0%	-0.7%	.	.
CCC(C)[C@H](NC(=O)Nc1ccc(S(N)(=O)=O)cc1)C(=O)O (some centres not stated)	3%	2.0%	3	0%
COC(=O)C1=C(C(=O)OC)[C@@H]2N(Cc3ccccc3)c3ccccc3[C@@]23C[C@@H](C(=O)OC)N(C(=O)CC(C)C)C3=N1	1%	-6.1%	3&0	22%
COc1cc(NC(=O)NCC2CCN(Cc3ccccc3C)CC2)cc(OC)c1OC	-2%	0.7%	.	3%
COc1ccccc1C(=O)NCC(=O)NC(C)CCc1ccccc1 (configuration not stated)	-12%	-2.7%	.	-4%
Cc1ccc(N(C(=O)CNC(=O)c2ccco2)C(C(=O)NCC2CCCO2)c2ccccc2)cc1 (configuration not stated)	-6%	1.7%	-4	-5%
Cc1ccccc1CC(=O)Nc1ccc(S(=O)(=O)N2CCN(C)CC2)cc1	12%	7.8%	.	-8%
Cc1cccc(C)c1N=C1NN=C(c2ccccc2F)CS1	-8%	-0.2%	-7	12%
Cc1cc2ccccc2c(=O)n1CC(=O)N(C)c1ccc(F)cc1	-6%	2.2%	0	-3%
CCOCCn1c(=NC(=O)CSCC(=O)Nc2cc(C)on2)sc2cc(OC)ccc21	-6%	0.8%	.	0%
Cc1nnc(NN2CCOCC2)[nH]c1=O	13%	0.2%	6[21.1 µM]	0%

Four structures out of the list, ordered by count of non-hydrogen atoms, largest number first.
SMILES	Rango release inh	Rango-impB inh	GLA inh pH 4.5	miR-21 FLuc
CCOCCn1c(=NC(=O)CSCC(=O)Nc2cc(C)on2)sc2cc(OC)ccc21	-6%	0.8%	.	0%
O=C(CNC(=O)c1ccc(Cl)cc1)OCCN1C(=O)c2ccccc2C1=O	0%	-0.7%	.	.
Cc1cc2ccccc2c(=O)n1CC(=O)N(C)c1ccc(F)cc1	-6%	2.2%	0	-3%
O=C(CCN1C(=O)c2ccccc2S1(=O)=O)NCc1ccco1	1%	1.3%	-4	-3%

New compounds follow
SMILES	Rango release inh	Rango-impB inh	GLA inh pH 4.5	miR-21 FLuc
COc1cc2ncnc(NCCc3ccccc3)c2cc1OC	5%	2.2%	-8	9%
O=C(CSc1nnc(-c2ccccc2)c(-c2ccccc2)n1)NC1CCS(=O)(=O)C1 (configuration not stated)	-3%	-2.1%	5	-1%
COc1ccc(-n2nc3c(N4CCC(C(=O)NCc5ccccc5)CC4)nnc(C)c3c2C)cc1	-2%	0.3%	.	-7%
Cc1cccc(Cn2cnc3c(NS(C)(=O)=O)c(C)c(C)cc32)c1	5%	-1.6%	8	0%
O=C(CN1C(=O)c2ccccc2S1(=O)=O)c1ccc(F)c(F)c1	-1%	0.4%	.	23%
CCCCCSc1nc(O)cc(=O)[nH]1	1%	-3.1%	3	-5%
Cc1ccc(C)c(NC(=O)COC(=O)c2ccc[n+]([O-])c2)c1	18%	6.0%	.	.
COc1ccc(C(O)Cn2ccsc2=NC(C)=O)cc1 (configuration not stated)	0%	-2.9%	.	27%
Cc1ccc(NC(=O)CN2CCCC2)cc1Br	-4%	0.4%	.	-7%
N#Cc1nc(-c2cccs2)oc1NCc1ccccc1Cl	-8%	-0.2%	-14	-17%
CC(C)(C)OC(=O)N1CCC(C(=O)Nc2cccc(C(=O)N3CCOCC3)c2)CC1	-4%	-4.0%	.	.
Cc1ccsc1C(=O)Nc1cc(C(C)(C)C)nn1-c1ccccc1	1%	-0.4%	1	1%
Nc1c(C(=O)Nc2ccc(Cl)c(Cl)c2)sc2nc(-c3cccnc3)ccc12	.	.	4	-8%
Cc1ccccc1NC(=O)c1cc(S(=O)(=O)N2CCOCC2)cn1C	1%	-1.8%	.	0%
COc1cccc(C2C3=C(N=c4s/c(=C\c5ccccc5O)c(=O)n42)c2ccccc2CC3)c1OC (configuration not stated)	.	.	-7	-1%

Molecules listed so far that have a tert-butyl group (3):
SMILES	Rango release inh	Rango-impB inh	GLA inh pH 4.5	miR-21 FLuc
COc1cccc(-n2c(SCC(=O)NC(C)(C)C)nnc2-c2ccoc2C)c1	5%	-0.5%	-3	1%
CC(C)(C)OC(=O)N1CCC(C(=O)Nc2cccc(C(=O)N3CCOCC3)c2)CC1	-4%	-4.0%	.	.
Cc1ccsc1C(=O)Nc1cc(C(C)(C)C)nn1-c1ccccc1	1%	-0.4%	1	1%

(further entries)
SMILES	Rango release inh	Rango-impB inh	GLA inh pH 4.5	miR-21 FLuc
O=C(CCS(=O)(=O)c1cccc2nsnc12)NCc1ccccc1Cl	2%	-0.1%	1	-5%
CC(C)(O)C1Cc2cc(/C=C/C(=O)O)c(O)cc2O1 (configuration not stated)	-18%	?	3	6%
O=C(Nc1ccc2c(c1)OCCO2)C1CCCN1C(=O)Nc1ccc(F)cc1 (configuration not stated)	12%	-2.2%	.	4%
OC12CC3C[C@H](C1)C(N1CCOCC1)[C@@H](C3)C2 (some centres not stated)	-1%	-0.7%	.	1%
CCN(Cc1cnn(C)c1)Cc1nc(C2(c3ccc(C)cc3)CCCC2)no1	6%	-2.1%	-11	-4%
CC(C)(C)c1cc(NC(=O)COc2ccc(Br)cc2)n(-c2ccccc2)n1	-8%	-2.4%	0	-1%
Cc1cc(C(=O)NNC(=O)C2CCCC2)c(C)o1	2%	1.3%	3	-6%
COC(=O)c1nc2nc(C)cc(C(F)(F)F)n2n1	-3%	1.8%	0	0%
Clc1ccc(-c2cc(CSc3cccc(Cl)c3)on2)cc1	-14%	0.5%	1	-19%
CCCCOC(=O)C1=C(C)NC(=O)NC1c1ccc(N(C)C)cc1 (configuration not stated)	-20%	-4.4%	.	-2%
CN(C)CCNC(=O)/C=N/O	3%	0.5%	8	0%
C=C(C)c1cccc(C(C)(C)NC(=O)NCCN(CC)CC)c1	8%	2.3%	-4	-7%
COc1ccccc1NC(=O)NC1(C(=O)N2CCN(C)CC2)CCCCC1	-13%	0.9%	.	-2%
COc1ccc(N2CCCn3c2nc2c3c(=O)n(Cc3ccc(C)cc3)c(=O)n2C)c(OC)c1	31%	2.3%	-10	-7%
O=C(O)c1cc(N/N=C/c2ccncc2)ccc1Cl	-24%	4.0%	-8	-55%

Whole records, quoted from the list:
Profile of COc1ccc(N2CCCn3c2nc2c3c(=O)n(Cc3ccc(C)cc3)c(=O)n2C)c(OC)c1 → Rango release inh = 31%; Rango-impB inh = 2.3%; GLA inh pH 4.5 = -10; miR-21 FLuc = -7%
Profile of COc1ccccc1NC(=O)NC1(C(=O)N2CCN(C)CC2)CCCCC1 → Rango release inh = -13%; Rango-impB inh = 0.9%; GLA inh pH 4.5 = .; miR-21 FLuc = -2%

(cont.)
SMILES	Rango release inh	Rango-impB inh	GLA inh pH 4.5	miR-21 FLuc
CCCc1cc(=O)[nH]c(SCC(=O)NC2(C#N)CCCCC2)n1	3%	5.3%	.	.
COc1ccc(/C=C/C(=O)c2ccc(OC)cc2OC)c(OC)c1	?	?	?	-25%
CCC(C)(C(=O)NC1CCCCC1)N(Cc1ccco1)C(=O)CNC(=O)c1ccccc1 (configuration not stated)	-5%	-4.9%	-1	-8%
Cc1ccc(NC(=O)C(=S)NCc2ccco2)cc1	10%	-1.3%	1	-54%
CCOc1ccc(/C=N/NC(N)=S)cc1	1%	6.1%	1	-31%
COc1ccccc1CN1C(=O)[C@@H]2C(CCC(N)=O)NC3(C(=O)Nc4c3ccc(Cl)c4C)[C@@H]2C1=O (some centres not stated)	1%	1.9%	6	-9%
CCn1c(=O)c2c(nc(SCC(=O)N3CCCC(C)C3)n2C)n(C)c1=O (configuration not stated)	4%	2.7%	.	5%
O=C(CSc1ccc([N+](=O)[O-])cc1)NCC1CCCCC1	-9%	-4.9%	-2	-10%

Screening data (PubChem BioAssay)
